PV pol inh: poliovirus RdRp elongation inhibitors, primary screen, biochemical, fluorescence polarization, total intensity; Genome polyprotein (Poliovirus type 1 (strain Mahoney)), P03300; poliovirus polymerase elongation; active compounds read low; % elongation, % (compound at 16.7 µg/mL); actives 0.66% (n = 150,000); AID 588519, 2011; in the data active = % elongation below about 90%; also: some results filed as inactive read as strong as hits
Target sequence (P03300 1749-2209 limits assumed): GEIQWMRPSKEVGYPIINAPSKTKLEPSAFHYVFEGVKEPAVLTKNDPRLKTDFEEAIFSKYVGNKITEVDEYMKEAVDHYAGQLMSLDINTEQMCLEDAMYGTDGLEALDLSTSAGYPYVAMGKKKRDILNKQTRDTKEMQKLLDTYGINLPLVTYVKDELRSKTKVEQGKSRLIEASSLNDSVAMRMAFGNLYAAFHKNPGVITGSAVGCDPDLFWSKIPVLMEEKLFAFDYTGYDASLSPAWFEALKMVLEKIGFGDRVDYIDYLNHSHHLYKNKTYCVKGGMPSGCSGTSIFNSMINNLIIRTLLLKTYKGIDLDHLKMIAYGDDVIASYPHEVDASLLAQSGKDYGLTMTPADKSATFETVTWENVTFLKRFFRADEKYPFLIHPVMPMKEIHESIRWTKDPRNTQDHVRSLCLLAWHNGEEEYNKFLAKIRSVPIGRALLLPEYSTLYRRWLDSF
MenB inh: M. tuberculosis MenB inhibitors, primary screen, biochemical, absorbance; 1,4-dihydroxy-2-naphthoyl-CoA synthase (Mycobacterium tuberculosis (strain ATCC 25618 / …; MenB enzyme assay, absorbance read-out; some hits fall short of the stated cut; inhibition, %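 (about 12 µg/mL by stock and volumes)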; actives 0.43% (n = 100,000); AID 540299, 2011;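 active = mean of two replicates above 30%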;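 also: 0% = no compound and 100% = wells with inactive enzyme; the first replicate is given; strong numbers were not always called active; inactives centre near -10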
Mtb MbtI inh: MbtI salicylate synthase inhibitors, primary screen, biochemical, fluorescence intensity; P9WFX0; actives 0.89% (n = 100,000); purified MbtI enzyme, fluorescence intensity read-out; inhibition, %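 (about 17 µg/mL by stock and volumes)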;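 active = above 50% in both replicates, above 80% if mildly self-fluorescent; inactive = the rest, strongly fluorescent compounds included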;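 also: 0% = mean of negative and 100% = mean of positive controls; one replicate is shown; some compounds called inactive have numbers as strong as hits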
Target sequence (P9WFX0 whole entry, looked up): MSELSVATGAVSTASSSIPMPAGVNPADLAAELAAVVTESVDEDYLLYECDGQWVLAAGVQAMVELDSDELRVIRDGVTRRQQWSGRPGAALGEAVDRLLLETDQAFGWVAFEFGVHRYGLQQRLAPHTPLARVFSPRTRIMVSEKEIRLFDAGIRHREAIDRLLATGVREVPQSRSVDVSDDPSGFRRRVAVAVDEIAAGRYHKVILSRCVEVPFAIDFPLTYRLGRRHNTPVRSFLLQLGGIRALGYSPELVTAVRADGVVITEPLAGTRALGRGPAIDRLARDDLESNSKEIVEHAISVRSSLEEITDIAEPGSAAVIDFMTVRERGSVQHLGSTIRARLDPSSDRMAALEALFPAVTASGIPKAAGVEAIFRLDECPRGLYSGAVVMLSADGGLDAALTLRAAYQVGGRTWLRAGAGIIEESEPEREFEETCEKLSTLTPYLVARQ
PV pol inh intensity: recorded beside PV pol inh, whose call it bears; % elongation; measured here: total intensity read-out; formula for this scale not given here;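 total fluorescence in place of polarization; lower means less elongation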
Numbers without * were called inactive; i = inactive; / = not tested or not shown.

The opening 16 entries, ahead of the listing:
Fields – PV pol inh	PV pol inh intensity	MenB inh	Mtb MbtI inh
1: Cc1cc(S(=O)(=O)N2CCC(c3nc4c(nnn4Cc4ccc(F)cc4)c(=O)[nH]3)CC2)ccc1-n1cnnn1
  104	100	-76	-6
2: CC1=C(C(N)=O)C(c2ccccc2)n2nc(-c3ccccc3)nc2N1 (stereo not drawn)
  104	107	-2	-5
3: CCC(C)(C(=O)NC1CCCC1)N(C(=O)c1ccccn1)c1ccc(C)cc1 (stereo not drawn)
  101	101	-29	-6
4: CCc1cc(-c2nn(CN3CCOCC3)c(C)c2-c2nc3ccccc3n2C)c(O)c(CN2CCOCC2)c1O
  102	104	-4	16
5: Cc1nnc2n1NC(c1ccccc1)C(C(=O)NCc1ccco1)S2 (stereo not drawn)
  101	101	10	-7
6: NN1C(=O)c2ccccc2NC1C1CC=CCC1 (stereo not drawn)
  103	99	-32	-47
7: CC(C(=O)O)N1C(=O)/C(=C/c2ccco2)SC1=S (stereo not drawn)
  100	93	-35	24
8: O=C(NCC(=O)N1CCN(Cc2ccccc2)CC1)c1ccc(Cl)c(Cl)c1
  96	97	-2	10
9: CCN(Cc1ccncc1)Cn1nc(-c2ccncc2)n(CCOC)c1=S
  100	103	5	11
10: CN(c1ccc(C(=O)NC2CCCCC2)cc1)S(C)(=O)=O
  100	104	4	-11
11: CN(C)c1ccc(C(=O)N2CCN(c3ccccc3)CC2)cc1
  105	102	-47	-3
12: COc1cc(C=C(C#N)C#N)ccc1OC(=O)c1ccco1
  99	102	-22	-1
13: Cc1nn(CC(=O)c2ccc3c(c2)OCCO3)c(=O)c(C#N)c1C
  107	105	2	-1
14: O=C(Nc1ccc(N2C(=O)C3C4C=CC(C4)C3C2=O)cc1)Nc1ccccn1 (stereo not drawn)
  101	102	9	-1
15: c1ccc(CSc2nnc(-c3ccccc3)n2Cc2ccco2)cc1
  103	96	-21	12
16: COc1cc2ccccc2cc1C(N)=O
  104	100	-4	101

This part in full (from the top)
Fields – PV pol inh	PV pol inh intensity	MenB inh	Mtb MbtI inh
1: Cc1cc(S(=O)(=O)N2CCC(c3nc4c(nnn4Cc4ccc(F)cc4)c(=O)[nH]3)CC2)ccc1-n1cnnn1
  104	100	-76	-6
2: CC1=C(C(N)=O)C(c2ccccc2)n2nc(-c3ccccc3)nc2N1 (stereo not drawn)
  104	107	-2	-5
3: CCC(C)(C(=O)NC1CCCC1)N(C(=O)c1ccccn1)c1ccc(C)cc1 (stereo not drawn)
  101	101	-29	-6
4: CCc1cc(-c2nn(CN3CCOCC3)c(C)c2-c2nc3ccccc3n2C)c(O)c(CN2CCOCC2)c1O
  102	104	-4	16
5: Cc1nnc2n1NC(c1ccccc1)C(C(=O)NCc1ccco1)S2 (stereo not drawn)
  101	101	10	-7
6: NN1C(=O)c2ccccc2NC1C1CC=CCC1 (stereo not drawn)
  103	99	-32	-47
7: CC(C(=O)O)N1C(=O)/C(=C/c2ccco2)SC1=S (stereo not drawn)
  100	93	-35	24
8: O=C(NCC(=O)N1CCN(Cc2ccccc2)CC1)c1ccc(Cl)c(Cl)c1
  96	97	-2	10
9: CCN(Cc1ccncc1)Cn1nc(-c2ccncc2)n(CCOC)c1=S
  100	103	5	11
10: CN(c1ccc(C(=O)NC2CCCCC2)cc1)S(C)(=O)=O
  100	104	4	-11
11: CN(C)c1ccc(C(=O)N2CCN(c3ccccc3)CC2)cc1
  105	102	-47	-3
12: COc1cc(C=C(C#N)C#N)ccc1OC(=O)c1ccco1
  99	102	-22	-1
13: Cc1nn(CC(=O)c2ccc3c(c2)OCCO3)c(=O)c(C#N)c1C
  107	105	2	-1
14: O=C(Nc1ccc(N2C(=O)C3C4C=CC(C4)C3C2=O)cc1)Nc1ccccn1 (stereo not drawn)
  101	102	9	-1
15: c1ccc(CSc2nnc(-c3ccccc3)n2Cc2ccco2)cc1
  103	96	-21	12
16: COc1cc2ccccc2cc1C(N)=O
  104	100	-4	101
17: CCOC(=O)c1cc(C)[nH]c(=O)n1
  100	100	1	79
18: CCN(Cc1ccccc1)C(=O)c1ccc(S(=O)(=O)N(C)C)cc1
  102	107	-5	0
19: CCN1C(=O)CS/C1=C(\C#N)S(=O)(=O)c1ccccc1
  122	133	-119	-6
20: Cc1oc(C(=O)O)cc1COc1ccc2c3c(c(=O)oc2c1)CCCC3
  103	105	-1	109
21: Cc1ccc(OCCSc2nc(N)cc(N)n2)c(C(C)C)c1
  101	94	-25	/
22: CCOC(=O)c1c(NC(=O)C(F)(F)F)n[nH]c1N
  103	100	9	12
23: N#C/C(=C/c1cccs1)C(N)=S
  104	98	i	26
24: CCOc1ccccc1NC(=O)c1ccc(OCC(=O)N2CCOCC2)c(OC)c1
  108	109	-5	3
25: O=C(N/N=C/c1cccc(C(F)(F)F)c1)c1ccccn1
  102	108	-21	4
26: C(=NN1CCN(C2c3ccccc3-c3ccccc32)CC1)c1ccncc1
  100	103	-23	9
27: Cc1cccc(C)c1NC(=O)C1(N(Cc2ccco2)C(=O)Cc2nc(N)n[nH]2)CCCCC1
  103	109	-4	/
28: COC(=O)c1sccc1NS(=O)(=O)c1ccc(F)cc1F
  108	100	-16	2
29: N=c1oc2cc(O)ccc2cc1C(=O)Nc1cccc(C(F)(F)F)c1
  100	124	/	-16
30: Nn1c(CO)nc2ccccc21
  105	93	5	/
31: CC1CN(C(=O)CCC(=O)N2CCC(C(N)=O)CC2)c2ccccc2O1 (stereo not drawn)
  100	103	-2	-30
32: CCOC(=O)CCN1N=C(c2ccc(CC)cc2)CCC1=O
  101	93	-30	3
33: Cc1cc(S(N)(=O)=O)ccc1OCC(=O)O
  106	100	-42	-8
34: O=C(NCc1ccco1)c1cccc2c1C(=O)N(Cc1cccnc1)C2
  101	103	-13	-1
35: Cc1ccc(/C=C/C(=O)Oc2ccc(-c3ccc(C#N)cc3)cc2)o1
  103	106	-9	9
36: COc1ccc(C2C3=C(CC(C)(C)CC3=O)Nc3nc(SCCN4CCOCC4)[nH]c(=O)c32)cc1OC (stereo not drawn)
  98	101	-11	17
37: CCC(Sc1nc2ncnc(N)c2[nH]1)C(=O)O (stereo not drawn)
  99	111	14	14
38: CN(C)CCNC(=O)c1ccc2c(c1)N(Cc1ccccc1)C(=O)CS2
  96	91	-17	6
39: O=C1CCC(=O)N1c1ccc(S(=O)(=O)N2CCN(c3nccc(C(F)(F)F)n3)CC2)cc1
  105	97	-10	6
40: COc1cc(/C=C2\C(=O)NC(=O)N(C(C)(C)C)C2=O)cc(OC)c1O
  100	103	-27	14
41: CN(Cc1ccccc1)S(=O)(=O)c1ccc(CN2C(=O)c3cccnc3C2=O)cc1
  103	102	-8	-11
42: O=C(Nc1ccccc1)N(CC1CCCO1)C1CCS(=O)(=O)C1 (stereo not drawn)
  102	102	20	3
43: COc1cccc(CNC(=O)c2cnn(-c3cccc(F)c3)c2-n2cccc2)c1OC
  101	100	-45	10
44: O=C(O)CC1S/C(=N\N=C2CCCCCCC2)N(c2ccccc2)C1=O (stereo not drawn)
  102	100	8	6
45: CCOC(=O)c1c(NC(C)=O)sc2c1CCCC2O (stereo not drawn)
  101	103	9	13
46: NC(=S)N1CCN=C1c1ccccc1
  99	101	-6	-19
47: CNC1C2CN3CCC(O2)C13 (stereo not drawn)
  104	103	-15	/
48: N/C(CC(=O)Nc1cccc(C(F)(F)F)c1)=N/O
  98	101	-14	4
49: CCOc1ccccc1Nc1nc(N)nc(CN(C)C2CCCCC2)n1
  105	102	-6	-6
50: CCO[C@@H]1O[C@H](C(COCc2ccccc2)OCc2ccccc2)[C@@H](OCc2ccccc2)C1O (stereo partly drawn)
  100	100	5	-11
51: Cn1ccnc1CSc1ncccc1C(=O)O
  104	112	-4	-2
52: CCOC(=O)/C=C/c1ccc(-c2ccc(F)cc2)o1
  103	108	/	-190
53: c1ccc(CCSc2nnc(-c3cccs3)o2)cc1
  /	/	-25	-17
54: CN(C)c1ccc(C(CNC(=O)C2CCCCC2)N2CCOCC2)cc1 (stereo not drawn)
  101	100	4	-23
55: O=C(/C=C/c1ccc(-c2cccs2)s1)Oc1ccc(Cl)cc1
  105	101	-14	2
56: CC(C)NC(=S)N1CCN(C/C=C/c2ccccc2)CC1
  102	103	0	0
57: NC(=S)NN1C2CSC1CS2
  105	113	-38	8
58: Cc1ccc2ncc(-c3ccc4c(N)c(C)ccc4n3)cc2c1
  17*	43*	-35	/
59: COc1cccc(C2(c3ccc(O)cc3)CCCC2)c1
  101	106	-9	-5
60: CCOC(=O)c1cnc2ccc(Cl)cc2c1Nc1ccc(S(=O)(=O)Nc2ncccn2)cc1
  101	106	-7	5

(cont.)
Fields – PV pol inh	PV pol inh intensity	MenB inh	Mtb MbtI inh
61: C#CCn1c(C2CC(=O)N(c3ccccc3Br)C2)nc2ccccc21 (stereo not drawn)
  101	98	-1	8
62: CCCc1cc(=O)n2c(-c3ccc(Cl)cc3)csc2n1
  102	101	14	3
63: CC1CCN(S(=O)(=O)N2CCCC(C(=O)NCCCN3CCN(Cc4ccccc4)CC3)C2)CC1 (stereo not drawn)
  99	102	7	-12
64: CCN(C(=O)CN1C(=O)COc2ccccc21)c1nc2c(C)cccc2s1
  100	109	-6	0
65: CCC(=O)Nc1ccc2nc(C)[nH]c2c1
  97	102	-56	-6
66: CO/N=C(/C(=O)N[C@@H]1C(=O)N2C(C(=O)[O-])=C(C[N+]3(C)CCCC3)CS[C@H]12)c1csc(N)n1
  100	102	1	2
67: COCCNC(=O)c1ccccc1NC(=O)c1cccc(C)c1
  103	103	-19	-15
68: O=C(OCc1ccc(F)cc1)c1ccccc1F
  99	105	/	-5
69: Cc1c(C(=O)N2CCN(S(=O)(=O)c3ccccc3)CC2)oc2ccc(Br)cc12
  102	108	3	-14
70: COc1ccc2nc(SC)nc(C)c2c1
  104	102	-32	i
71: Cc1ccc(S(=O)(=O)CCC(=O)O)cc1
  103	105	/	-3
72: O=C(C1=Cc2sc3c(c2CS1)CCCC3)N1CCC2(CC1)OCCO2
  104	109	-15	95*
73: Cc1ccc(NC(=O)CC(c2ccccc2)c2ccccc2)cc1C
  101	99	-22	/
74: CC(OC(=O)c1ccncc1)C(=O)NC1CCCC1 (stereo not drawn)
  112	109	-14	-11
75: CN1CCN(Cc2cc(C(C)(C)C)c(O)c(C(C)(C)C)c2)CC1
  103	107	-8	-7
76: CC(=O)Nc1ccc(/C=N/NC(=O)CN2CCSCC2)cc1
  100	100	-44	18
77: Cc1ccc(NC(=O)Cn2cccc2)cc1
  99	103	5	7
78: O=C(/C=C/c1cccs1)N1CCCCCC1
  100	98	/	9
79: CCn1c(Cc2ccccc2)nnc1SC(C#N)Cc1ccc(C)cc1 (stereo not drawn)
  105	96	-28	10
80: CCc1c(C)nc2nc[nH]n2c1=O
  104	112	-11	3
81: CCOC(=O)C1=C(C)NC(=O)NC1/C=C/c1ccccc1 (stereo not drawn)
  100	101	-61	-2
82: CCc1c(C)nc2cc(-c3ccc(Cl)cc3)[nH]n2c1=O
  100	96	-27	/
83: O=C(NCCc1nc2ccccc2[nH]1)c1cccs1
  99	109	-12	/
84: CC(C)(C)NC(=O)COc1ccc2oc3c(c2c1)CCCC3
  108	107	-14	-6
85: CN1C(=O)C2C(c3ccc(N(C)C)cc3)NN(Cc3ccccc3)C2C1=O (stereo not drawn)
  106	107	-28	-62
86: CNC(=O)NC(=O)CSc1nnc(-c2ccccc2)o1
  104	109	-29	-7
87: CCN(C(=O)c1cc2c(C)nc3ccccc3c2o1)c1cc(Cl)ccc1OC
  100	102	-16	4
88: Cc1ccc(CSCc2ccc(C(=O)O)o2)cc1
  98	103	-11	-1
89: CCCCn1c(=O)c2ccccc2c2ccccc2c1=O
  102	98	-8	10
90: CC(C)C(=O)Nc1ccc2[nH]c(=O)[nH]c2c1
  106	99	-22	1
91: CCN(CC)C(=O)c1sc2nc(-c3cccs3)cc(C(F)(F)F)c2c1N
  50	248	-2	/
92: O=C(CNC(=O)c1ccccc1)NC1CCCC1
  101	100	3	-5
93: COc1cccc(C(=O)NCCn2c(C)cc3ccccc32)c1
  102	98	-7	4

High-throughput results as filed in PubChem.
